Source: PubChem (National Center for Advancing Translational Sciences (NCATS))
AID923: qHTS Assay for Allosteric/Competitive Inhibitors of Caspase-1: Spectroscopic Profiling in AFC Spectral Region; Potency, µM (doses to about 57.5 µM), inactives show at the top dose fluorescence increase, usual class: activators; AID 923, 2007; compound fluorescence, AFC spectral region (405/520 nm); almost no hit is shown here; 75,000 compounds, 1.1% hits; active = well fitted activation curve with a large enough effect; inconclusive = small, poorly fitted or top-dose-only effect;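 also: potency is read from the fitted curve at half-maximal effect; 0% is about no effect; scaled to a free AFC standard on each plate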
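Compound autofluorescence profiled at 405 nm ex/520 nm em during kinetic caspase 1 run (50 nM enzyme, 5 uM Ac-WEHD-AFC, HEPES pH 7.5, 10 mM DTT). Titration up to 57 uM; baseline from regression intercept, normalized to AFC standard curve.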
A488 autofl: qHTS Assay for Spectroscopic Profiling in A488 Spectral Region | compound autofluorescence, A488 spectral region, dye equivalency; hits give high values | max dye equivalency, M | 59,000 compounds, 0.1% hits; active = above 10 nM dye equivalent; inconclusive = 1 to 10 nM; inactive = 1 nM or less; about half of its hits are not listed in these tables;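 also: highest value over a series up to 38 µM; compound alone in buffer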
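Autofluorescence read at ex 480/em 540 nm after 15 min RT in 100 mM Tris pH 8.0; compound signal normalized to A488 standard series on each plate, reported as dye-equivalent concentration at each test concentration.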
A647 fluor: qHTS Assay for Spectroscopic Profiling in A647 Spectral Region | 59,000 tested, under 10 active | max dye-equivalent concentration, M | Compound fluorescence, A647 channel (570/671 nm), Tris buffer; active means above 1 µM dye equivalent; inconclusive means 0.1 to 1 µM; inactive means 0.1 µM or less;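 also: values scaled relative to a standard on each plate; highest value over a series up to 38 µM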
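Buffer was dispensed, compounds and Alexa 647 standards were pin-transferred, and plates sat 15 min at room temperature. Intensity at 570/671 nm was then converted to dye-equivalent concentration using the plate's A647 standard curve.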
Resorufin fluor: qHTS Assay for Spectroscopic Profiling in Resorufin Spectral Region; Compound fluorescence, resorufin region 547/598 nm, buffer; hits give high values; 59,000 compounds, 0.04% hits; max dye-equivalent concentration, M; active = above 10 nM dye equivalent; inconclusive = 1 to 10 nM; inactive = 1 nM or less; a few of its hits are not listed in these tables; also: highest value over a series up to 38 µM
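Read-out: intrinsic compound fluorescence at ex 547/em 598 nm after 15 min at RT in pH 8.0 Tris (100 mM). Values expressed as resorufin-equivalent concentration from per-plate standard series.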
TSHR agonist: qHTS Assay for Agonists of the Thyroid Stimulating Hormone Receptor; Thyrotropin receptor (Homo sapiens), P16473; Potency, µM (series often up to 57.1 µM), inactives show at the highest dose activation, actives largely listed as activators; HEK293-CNG-TSHR cells (CNG channel as cAMP sensor), membrane potential dye, cAMP; AID 926, 2007; 73,000 compounds, 0.48% hits; active = well fitted activation curve of enough size with the parental cells flat; inconclusive = any curve in the parental cells; inactive = parental cells flat and receptor cells flat or falling; also: potency is read from the fitted curve at half-maximal effect; % of control where 0% means no effect; weak receptor curves with flat parental cells got no call and are not listed
Target sequence (P16473 whole entry, looked up): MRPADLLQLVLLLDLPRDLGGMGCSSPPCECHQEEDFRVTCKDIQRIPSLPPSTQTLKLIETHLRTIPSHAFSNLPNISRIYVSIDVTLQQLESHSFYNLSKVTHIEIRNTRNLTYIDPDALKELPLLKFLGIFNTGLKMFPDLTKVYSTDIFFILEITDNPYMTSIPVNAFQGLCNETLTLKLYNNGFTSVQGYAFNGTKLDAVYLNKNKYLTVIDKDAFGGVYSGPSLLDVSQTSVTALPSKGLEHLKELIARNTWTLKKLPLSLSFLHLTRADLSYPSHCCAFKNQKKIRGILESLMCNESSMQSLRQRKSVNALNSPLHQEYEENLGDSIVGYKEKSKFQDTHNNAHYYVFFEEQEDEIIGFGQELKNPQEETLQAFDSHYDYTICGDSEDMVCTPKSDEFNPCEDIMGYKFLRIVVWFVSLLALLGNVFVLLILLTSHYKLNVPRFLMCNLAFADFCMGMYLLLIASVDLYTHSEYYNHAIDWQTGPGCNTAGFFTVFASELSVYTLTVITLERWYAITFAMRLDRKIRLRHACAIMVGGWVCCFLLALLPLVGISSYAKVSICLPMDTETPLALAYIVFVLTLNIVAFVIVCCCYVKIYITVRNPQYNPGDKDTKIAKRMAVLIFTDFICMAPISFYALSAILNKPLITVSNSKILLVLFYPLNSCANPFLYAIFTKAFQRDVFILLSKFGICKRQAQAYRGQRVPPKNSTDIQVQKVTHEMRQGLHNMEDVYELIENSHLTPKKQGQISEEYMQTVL
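cAMP rise detected as CNG-channel membrane depolarization by fluorescent dye (emission 590 nm), 30 min after compound, following 60 min dye loading containing 100 uM RO 20-1724 at room temperature. Cells: TSHR/CNG HEK 293, with parental CNG HEK 293 as control.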
* marks the source's active call; other numbers are inactive results; i = inactive; ? = inconclusive; nt = not tested or not shown; [ ] = another dose, or the depositor's remark. This is a subset; rates above refer to the full screens.

The line under a structure holds: AID923	A488 autofl	A647 fluor	Resorufin fluor	TSHR agonist
C/C(CCN1CCCc2nc(C)c(C)cc21)=N\O[C@@H](C)CN1CCCc2nc(C)c(C)cc21
  3.3%[11.5 µM]	nt	nt	nt	-3%[11.4 µM]
CN(C)S(=O)(=O)c1cccc(CSc2cccc[n+]2[O-])c1
  -0.8%	i	1e-08	i	-1%[11.4 µM]
CCOC(=O)C1CCCN(C(=O)C2CCC(CNS(=O)(=O)c3ccc(NC(C)=O)cc3)CC2)C1 (stereo not given)
  0.5%	i	1e-09	i	?
CCCCn1c(SCC(=O)Nc2nnc(CC)s2)nc2ccccc2c1=O
  5.2%	i	3.9e-08	i	2%
O=S(=O)(c1ccccc1)C1(S(=O)(=O)c2ccccc2)CCCC1
  0.6%	nt	nt	nt	18%
CC1(C)Cc2ccccc2-c2n[nH]c(=S)n21
  0.7%	nt	nt	nt	9%
N#Cc1cc(C(=O)c2cc(Cl)ccc2O)cn(CC2CCCO2)c1=O (stereo not given)
  0.2%	i	6.3e-09	i	7%
Cc1cc(C)n(/N=C/c2ccccc2)c(=O)c1C#N
  -2.9%	i	1e-09	i	1%
CC1(C)CC(=O)C(C2(O)C(=O)N(Cc3ccccc3)c3ccccc32)CO1 (stereo not given)
  7.1%	i	1e-09	i	4%
Cc1ccc2nc(NC(=O)CCNS(=O)(=O)c3ccc(Br)s3)sc2c1
  -0.2%	i	1e-09	i	-9%
Cc1ncsc1C(=O)Nc1nc2c(s1)CCCC2
  -0.3%	i	2.7e-09	i	-8%
O=C(OCn1cncn1)c1ccc(Cl)cc1Cl
  8.4%	i	1e-09	i	3%
CCOc1ccc(OCC)c(N=c2oc3c(C)ncc(CO)c3cc2C(N)=O)c1
  -0.5%	i	1.1e-08	i	-2%
Cc1nn(C(C)C(=O)N2CCN(c3ccccn3)CC2)c(=O)c2cc3occc3n12 (stereo not given)
  -0.1%	nt	nt	nt	?
O=C(Cc1ccc(Cl)cc1)Nc1ccc(-c2nnc(-c3ccco3)o2)cc1
  -0.1%	nt	nt	nt	-13%
COC(=O)c1ccccc1NC(=O)c1ccccc1N(C)S(C)(=O)=O
  0.7%	i	1e-09	i	11%
Cc1cccc2sc(NC(=O)C3CCCO3)nc12 (stereo not given)
  0.6%	i	5.6e-09	i	nt
CCOc1ccccc1CNC(=O)CCN1C(=O)COc2ccccc21
  -2.2%	i	4.8e-09	i	12%
COc1ccc2nc(C)cc(Nc3ccc(N4CCOCC4)cc3)c2c1
  0.2%	i	1.8e-09	i	?
Cc1cccc(NC(=O)Nc2cc(C)on2)c1
  -2.9%	i	1e-09	i	-8%
O=C(c1ccc2c(c1)OCO2)N1CCN(c2ccc(F)cc2)CC1
  -2.1%	i	1.5e-08	i	-5%
Cc1ccc(OCCN2CCN(C(=O)CCC(=O)Nc3nnc(C)s3)CC2)cc1
  -0.5%	i	5.8e-09	i	13%
CN(C)/C=N/c1c(C#N)cnn1-c1nc2ccccc2s1
  1.5%	i	1e-09	i	8%
Cc1cc(=O)[nH]c(SCCOc2cccc(C(F)(F)F)c2)n1
  0.2%	i	5.1e-09	i	25%
COc1ccc(C(N)CCc2ccco2)cc1 (stereo not given)
  5.9%	i	3.1e-08	i	3%[11.4 µM]
O=C(CCn1c(=O)oc2ccccc21)n1c(=O)oc2ccccc21
  0.6%	i	6.3e-09	i	4%
Cc1c(C(=O)OCC(C)(C)CN(C)C)oc2ccccc12
  0.1%	i	1.6e-09	i	16%
O=C(CN1CCN(c2ccc(F)cc2)CC1)NCC1CCCO1 (stereo not given)
  0.0%	i	2.6e-08	i	1%
COc1cccc(-c2cncnc2NCc2cccnc2)c1
  3.8%	i	5.7e-09	i	2%
Cc1ccc(S(=O)(=O)C2(C(=O)NC3CCCC3)CC2)cc1
  0.1%	i	3.1e-09	i	-3%

Among those listed so far, these have an aryl thioether with sulfur outside any ring.
The line under a structure holds: AID923	A488 autofl	A647 fluor	Resorufin fluor	TSHR agonist
CN(C)S(=O)(=O)c1cccc(CSc2cccc[n+]2[O-])c1
  -0.8%	i	1e-08	i	-1%[11.4 µM]
CCCCn1c(SCC(=O)Nc2nnc(CC)s2)nc2ccccc2c1=O
  5.2%	i	3.9e-08	i	2%
Cc1cc(=O)[nH]c(SCCOc2cccc(C(F)(F)F)c2)n1
  0.2%	i	5.1e-09	i	25%

Additional compounds
The line under a structure holds: AID923	A488 autofl	A647 fluor	Resorufin fluor	TSHR agonist
CCOc1ccc(-n2c(Cc3cc(=O)[nH]c(=O)[nH]3)nnc2SC(C)C(=O)OC)cc1 (stereo not given)
  -0.6%	nt	nt	nt	?
COCCNC(=O)c1ccc(CS(=O)(=O)c2ccccc2)o1
  0.7%	i	1e-09	i	-1%
Cc1ncoc1C(=O)Nc1ccc2c(c1)OCCO2
  -1.4%	i	9.9e-09	i	1%
CCOC(=O)C1CCN(C(=O)Cc2cccs2)CC1
  0.9%	i	1.7e-08	i	1%
COc1ccc(S(=O)(=O)N(CC(=O)N2CCN(C)CC2)c2ccc(C)cc2)cc1OC
  0.5%	i	1.8e-08	i	8%
Cc1nc(NCCCn2ccnc2)c2ccccc2n1
  0.4%	i	8.4e-09	i	2%
CSc1ccc(S(=O)(=O)Nc2ccc3c(c2)OCCO3)cc1
  -0.3%	nt	nt	nt	33%
Cc1ccc(NC(=O)CC2Oc3ccccc3NC2=O)c(C)c1 (stereo not given)
  -1.9%	nt	nt	nt	-6%
COc1ccc(C2CC(c3ccccc3)Nc3nc(N)nn32)cc1 (stereo not given)
  nt	i	4.3e-08	i	nt
O=C(Nc1nccs1)c1cc(N2CCOCC2)nc2ccccc12
  -1.1%	i	1.9e-08	i	19%
C[C@@H]1C=C[C@](Cc2ccccc2)(C(=O)NCCCNc2ncc(C(F)(F)F)cc2Cl)N1C(=O)c1ccccc1
  -2.4%	nt	nt	nt	?
O=C(O)C1C2CCC(C2)C1C(=O)NCc1ccccn1 (stereo not given)
  2.2%	i	1.2e-09	i	-2%
O=c1[nH]cnc2scc(-c3ccsc3)c12
  0.8%	i	1.5e-08	i	0%
COc1ccc(NC(=O)c2cc(-c3ccc(O)cc3)on2)cc1OC
  -2.3%	nt	nt	nt	4%
O=C(CCCc1cccs1)N1CCN(S(=O)(=O)c2ccccc2Br)CC1
  -0.8%	i	1e-09	i	16%
CCCS(=O)(=O)N1CCCC(C(=O)NCCCN2CCCC2=O)C1 (stereo not given)
  0.9%	i	1e-09	i	2%
Nc1ccc(NC(=O)c2cccs2)c(Cl)c1
  2.2%	i	3.6e-08	i	1%
CCOC(=O)c1c(-c2ccccc2)csc1NC(=O)CSc1nnnn1C
  1.2%	i	5.4e-09	i	?
Cc1ccc(Cl)cc1NC(=O)CSc1nnc(C)n1-c1ccccc1
  -0.7%	i	1e-09	i	-2%
CCC(=O)Nc1nc2ccccc2n1Cc1ccccc1
  -2.2%	i	2e-09	i	-7%
CCCCNC(=O)c1cc2n(n1)C(C(F)(F)F)CC(c1ccccc1)N2 (stereo not given)
  nt	i	3.1e-08	i	nt
Cc1ccc(C)c(NC(=O)c2nnn(Cc3ccccc3)c2N)c1
  -2.1%	i	2.8e-08	i	-8%[11.4 µM]
COc1cccc(C2c3c(oc4ccccc4c3=O)C(=O)N2CCCN2CCOCC2)c1OC (stereo not given)
  0.6%	i	2e-09	i	-8%
COC(=O)C/C=C/C(C)C(OCc1cccc(Br)c1)C(C)C(OC)C1CCCCC1 (stereo not given)
  -2.4%[11.5 µM]	nt	nt	nt	-5%[11.4 µM]
CCC1Oc2ccc(C)cc2N(CC(=O)NCCN2C(C)CCCC2C)C1=O (stereo not given)
  -0.4%	i	3.1e-08	i	11%
CCOC(=O)c1[nH]c(C)c(C(=O)NCc2ccccn2)c1C
  0.8%	i	1.6e-08	i	-1%
Nc1nnc(CC(=O)N2CCCCC2)s1
  2.5%	i	3.2e-09	i	-3%
O=C(CCNS(=O)(=O)c1ccc2c(c1)CCC(=O)N2)NCc1cccnc1
  -0.5%	i	1e-09	i	2%
COc1cccc(C2c3c(oc4ccccc4c3=O)C(=O)N2CCCN(C)C)c1OC (stereo not given)
  2.5%	i	3.2e-08	i	3%
CCN(CC)S(=O)(=O)c1cccc(C(=O)Nc2ccc(C#N)cc2)c1
  1.4%	i	1e-09	i	11%[11.4 µM]
Cn1c(Cn2c(=O)sc3ccccc32)nnc1SCC(=O)Nc1ccc2c(c1)OCO2
  -0.1%	nt	nt	nt	-3%
COc1ccc(CC(C(=O)Nc2cccc(F)c2)c2nn[nH]n2)c(OC)c1 (stereo not given)
  0.9%	i	6.6e-08	i	3%
COc1cccc(NC(=O)COc2ccccc2C(N)=O)c1
  0.2%	i	6.5e-09	i	-1%
CCOC(=O)c1[nH]c2ccc(OC)cc2c1NC(=O)CN1CCC2(CC1)OCCO2
  -1.2%	i	8.5e-09	i	1%
Cc1cc(-c2nc3ccccc3o2)c2ccccc2n1
  0.2%	i	4.1e-09	i	9%
Cc1ccc(C(=O)Cn2c(N3CCOCC3)nc3c2c(=O)n(C)c(=O)n3C)cc1
  -1.1%	i	4.4e-09	i	11%
CCC(c1nc2ccccc2c(=O)n1CCCn1ccnc1)N1C(=O)c2ccccc2C1=O (stereo not given)
  1.1%	i	5.9e-09	i	13%
CC(C)(C)C(=O)NC(c1ccc(Cl)cc1)[C@]1(C)C[C@H]1C1CCCCC1 (stereo not given in full)
  -4.4%	nt	nt	nt	?
CCC(=O)N1CCc2cc(S(=O)(=O)CCC(=O)Nc3ccc(F)c(F)c3)ccc21
  1.7%	i	1e-09	i	21%
Cc1ccnc(NC(=O)COC(=O)C2COc3ccccc3O2)n1 (stereo not given)
  0.4%	i	2.7e-08	i	-2%[11.4 µM]
O=C1[C@H]2[C@H]3[C@H](O)[C@H](O)C/C(=N/OCc4ccccc4)[C@H]3CC[C@@H]2C(=O)N1C1CCCCC1
  1.8%[11.5 µM]	nt	nt	nt	-16%[11.4 µM]
OC(Cc1ccccc1)(Cc1ccccc1)c1ccccc1
  2.3%[11.5 µM]	i	4.9e-09	i	9%[11.4 µM]
O=C(NCc1ccccc1)c1ccc(=O)[nH]n1
  nt	i	3e-09	i	nt
O=C1CC(SC(=NCc2ccc3c(c2)OCO3)Nc2ccccc2)C(=O)N1 (stereo not given)
  3.5%	nt	nt	nt	-1%
Cc1cccc(Nc2nn3c(=O)c4ccccc4nc3s2)c1
  -0.6%	i	4.3e-09	i	4%
Cc1cccc(-n2c(N)c(C(=O)N3CCN(C)CC3)sc2=S)c1
  0.7%	i	9.9e-09	i	7%
CCCC(=O)N1CC2(C)CN(C(=O)CCC)CC(CCC)(C1)C2=O
  -0.9%	i	2.2e-09	i	1%
Cc1ccc(Cn2c(SCCN3CCCCC3)nc3c2c(=O)[nH]c(=O)n3C)cc1
  -0.9%	nt	nt	nt	?
CC12CC[C@@H]3c4ccc(OP(=O)(O)O)cc4CCC3C1CCC2=O (stereo not given in full)
  0.9%[11.5 µM]	i	2.9e-09	i	-2%[11.4 µM]
CCC1(C)Cc2c(sc3nc4n(c(=O)c23)CCCS4)CO1 (stereo not given)
  -7.7%	i	1.9e-08	i	10%
CCN(Cc1ccccc1)C(=O)c1ccccc1C
  0.0%	i	2.4e-08	i	?
